CapD inh: CapD enzyme inhibition | purified CapD enzyme, fluorescence intensity read-out; stronger effect = lower value; some hits fall short of the stated cut | 140,000 tested, 0.23% active | z-score (concentration not given with the values);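 active = z-score under -4 in either of two replicates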;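 also: stock transfer was 100 nL into about 40 µL; score is relative to mean and spread of the plate; one replicate is shown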
AID504770: E. coli YBA685 growth inhibition, screen for V. cholerae RctB inhibitors. E. coli YBA685 rctB-dependent plasmid, OD600 growth, 3 h; stronger effect = lower value. z-score (test concentration not listed). 130,000 tested, 0.27% active;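 active = z-score under -2 on both plates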;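 also: wells of about 30 µL received 100 nL stock; score is relative to mean and SD of the test wells; the first replicate is given; strong numbers were not always called active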
* hit, by the source's call; / = not tested or not shown. Outcome played no part in choosing rows (roughly 0.37% active in at least one column).

SMILES	CapD inh	AID504770
O=C(COc1cccc(NC(=O)c2ccccc2)c1)NCCOc1ccccc1	1.1	-0.2
CCCc1c(N)ccc2c(=O)cc(C(=O)OCC)oc12	-1.4	-0.6
CCOC(=O)c1cnc(S/C=C/C(=O)c2ccccc2)nc1N	0.23	-0.6
COC(=O)C1=C(C)N=C2SC(C)C(=O)N2C1c1ccc(C(C)C)cc1 (configuration not stated)	34	-0.05
O=C(O)c1cc2ccc(F)cc2[nH]1	/	1.45
CCOC(=O)/C(C#N)=C/Nc1ccn[nH]1	-1.89	1.6
C=CCNC(=O)C1CC(c2ccccc2OC)=NO1 (configuration not stated)	0.405	-0.75
CCOc1ccc(N2C(=O)C3C(c4ccccc4)C=CC(c4ccccc4)C3C2=O)cc1 (configuration not stated)	-0.195	/
O=S(=O)(c1ccc(Cl)cc1)N1CCN(c2nc(-c3cccs3)ns2)CC1	0.12	0.8
CCO/C=N/c1c(C#N)c(CC#N)nn1-c1ccccc1	0.51	-1.2
CC(O)(CSc1ccc(Cl)cc1)C(=O)Nc1ccc(Cl)cc1 (configuration not stated)	-0.26	/
CCOc1ccc(NC(=O)C(Cc2ccccc2)NC(=O)C2CCCCC2)cc1 (configuration not stated)	-0.26	-0.8
N#Cc1c(Cl)cccc1NCCCN1CCCCC1	60.5	/
C/C(=N\OC(=O)c1ccc(C(F)(F)F)cc1)c1ccn(S(=O)(=O)c2ccccc2)c1	0.2	/
CC(C)Oc1ccc(C(F)(F)F)cc1N	0.565	-1.3
COc1ccc(S(=O)(=O)Cc2ccc(C(=O)NC3CCN(Cc4ccccc4)CC3)o2)cc1	-0.25	2.2
O=C1CC(c2ccccc2)=NN1	-0.21	-0.5
COc1ccccc1N(CC(=O)Nc1sc2c(c1C(N)=O)CCC2)S(=O)(=O)c1cccs1	/	-0.95
CC1(C)Cc2ccccc2/C(=C/C(=O)N2CCCCCC2)N1	/	-0.4
O=C(Nc1ccc(Cl)c(Cl)c1)c1cc(=O)n(Cc2ccccc2)c(=O)[nH]1	0.395	/
O=C(O)C1(c2ccc(O)cc2)CCCC1	/	-0.05
NCCN1C(=O)CSC1=O	0.18	0.55
CCn1c(O)c(C=NCCc2c[nH]c3ccccc23)c(=O)[nH]c1=O	-0.035	0.05
CC1/C(=N/O)CC(c2ccccc2)NC1c1ccccc1 (configuration not stated)	0.175	0.25
CC(=O)N1c2ccccc2C(=O)C1N1CCCCC1 (configuration not stated)	17.8	0.05
O=S(=O)(c1ccc(-n2cnnn2)cc1)N1CCCC2CCCCC21 (configuration not stated)	0.705	-0.5
O=C(c1ccc(Cl)cc1)N(Cc1ccc(Cl)cc1)C1CCS(=O)(=O)C1 (configuration not stated)	-0.51	-0.25
O=C1CCN(S(=O)(=O)c2cccc(S(=O)(=O)c3ccc(Cl)cc3)c2)C2CCCCC12 (configuration not stated)	-0.16	0.25
COc1ccc(Cl)cc1N1C(=O)CSC1c1ccc(Br)cc1 (configuration not stated)	0.855	/
CCSc1nc2ncnc(N)c2[nH]1	0.05	-0.7
Cc1cc(N)n(N)c(=O)c1	/	0.35
Cn1c(=O)c2c(ncn2C/C=C/c2ccccc2)n(C)c1=O	/	-0.7
O=C(CSc1ccc(F)cc1)OCCN1CCOCC1	/	0.15
CCC(=O)Nc1nnc(C(C)(C)C)s1	/	-0.35
Cc1oc2ccccc2c1CNC(N)=O	0.41	1.15
COc1ccc(CCNC(=O)CSc2ccccn2)cc1	0.255	-0.45
COc1ccccc1CNC(=O)C1CCN(S(=O)(=O)c2cccc3nonc23)CC1	-0.46	0
c1ccc(Nc2cnccn2)cc1	1.52	-0.75
COc1cccc(CN2CCN(S(=O)(=O)c3cccc(F)c3)CC2)c1	0.335	/
CCOC(=O)Cn1c(C)c(Sc2ccccc2)c2ccccc21	0.14	0.25
CCOC(=O)c1ccc(N=C2SC(C(=O)NC)CC(=O)N2CCC23CC4CC(CC(C4)C2)C3)cc1 (configuration not stated)	-0.205	/
Cc1cc(C)n2nc(SC(C)C(=O)NC3CC3)nc2n1 (configuration not stated)	-0.01	0
O=C(O)C1CCCCC1C(=O)N1CC=C(c2ccccc2)CC1 (configuration not stated)	-0.08	-1
Cc1ccc(N2C(=O)C3C4c5ccccc5C(C=O)(c5ccccc54)C3C2=O)c(Br)c1 (configuration not stated)	-0.035	/
CC(C)N(C(=O)CNc1cc(Cl)ccc1Cl)c1ccccc1	0.68	-0.35
O=C(NC1CCCCC1)C1c2ccccc2C(=O)N1C1CCCC1 (configuration not stated)	0.32	-0.8
CC(CC(=O)N1CCN(c2ccccn2)CC1)n1ccnc1 (configuration not stated)	/	-1.8
CCN(CC)c1ccc(-c2nc(NC(C)=O)c3c(=O)oc4ccccc4c3n2)cc1	/	-0.5
O=C1CCCC2=C1C(c1ccc(O)cc1)Nc1ccc3ccccc3c12 (configuration not stated)	87.7	/
NC(=O)C1CCN(C(=O)/C=C2\Sc3ccccc3NC2=O)CC1	-3.22	-0.6
CCn1c(SCc2ccccc2)nnc1-c1ccncc1	0.185	-1.1
NCCCNC(=O)c1ccc(/C=N\O)nc1	0.445	0.7
COc1cc2cc3c4c(cc(OC)c(OC)c4c2cc1OC)CCN3C	41.4	0
COc1ccc(/C=C2\SC(N)=NC2=O)cc1OCc1ccc(Cl)cc1	0.375	/
C=CCOc1ccc(C=C(C#N)C#N)cc1	-0.085	-0.55
C=CCn1c(SCC(=O)c2ccc(OC)c(OC)c2)nc2sc3c(c2c1=O)CCC3	-0.58	/
NCCN1CCN(Cc2ccccc2)CC1	/	-0.1
COc1ccc(-c2nc3ccccc3c(=O)n2OC(=O)/C=C/c2ccc(Br)cc2)cc1OC	-0.045	/
Clc1ccc(CSc2nnc(-c3csc(-c4ccccc4)n3)o2)cc1	-0.63	/
CCC1=NN(C(=O)c2cccc(C)c2)C(O)(c2ccc(Br)cc2)C1 (configuration not stated)	-0.485	/

14 of these compounds in another layout:
Structure | CapD inh | AID504770
O=C(NC1CCCCC1)C1c2ccccc2C(=O)N1C1CCCC1 (configuration not stated) | 0.32 | -0.8
CC(CC(=O)N1CCN(c2ccccn2)CC1)n1ccnc1 (configuration not stated) | / | -1.8
CCN(CC)c1ccc(-c2nc(NC(C)=O)c3c(=O)oc4ccccc4c3n2)cc1 | / | -0.5
O=C1CCCC2=C1C(c1ccc(O)cc1)Nc1ccc3ccccc3c12 (configuration not stated) | 87.7 | /
NC(=O)C1CCN(C(=O)/C=C2\Sc3ccccc3NC2=O)CC1 | -3.22 | -0.6
CCn1c(SCc2ccccc2)nnc1-c1ccncc1 | 0.185 | -1.1
NCCCNC(=O)c1ccc(/C=N\O)nc1 | 0.445 | 0.7
COc1cc2cc3c4c(cc(OC)c(OC)c4c2cc1OC)CCN3C | 41.4 | 0
COc1ccc(/C=C2\SC(N)=NC2=O)cc1OCc1ccc(Cl)cc1 | 0.375 | /
C=CCOc1ccc(C=C(C#N)C#N)cc1 | -0.085 | -0.55
C=CCn1c(SCC(=O)c2ccc(OC)c(OC)c2)nc2sc3c(c2c1=O)CCC3 | -0.58 | /
NCCN1CCN(Cc2ccccc2)CC1 | / | -0.1
COc1ccc(-c2nc3ccccc3c(=O)n2OC(=O)/C=C/c2ccc(Br)cc2)cc1OC | -0.045 | /
Clc1ccc(CSc2nnc(-c3csc(-c4ccccc4)n3)o2)cc1 | -0.63 | /

(more compounds)
SMILES	CapD inh	AID504770
CC(C)N1C(=O)c2ccccc2N(Cc2ccccc2)S1(=O)=O	1.81	-0.6
CC1=C(C)C(=O)N(c2ccc(C(=O)O)cc2)C1=O	0.765	-0.5
Cn1cc(C(=O)NCc2cccs2)c(=O)c2cc(S(=O)(=O)N3CCOCC3)ccc21	-0.35	-0.55
CCOC(=O)/C(=N\Nc1ncnc2ccccc12)c1ccc(OC)cc1	/	-0.7
O=C(Nc1ccc2c(c1)CCC2)C1CCN(c2ccc(S(=O)(=O)N3CCCC3)cc2)CC1	/	2.2
Cc1cc(Sc2nc(C)cc(C)c2C#N)nc(N)n1	0.645	-0.25
C=CC1CN2CCC1CC2[C@@H](OC(=O)c1ccc(OC)cc1)c1ccnc2ccccc12 (some centres not stated)	-0.825	-0.1
CCCOC(=O)COc1ccc2c3c(c(=O)oc2c1C)CCCC3	3.9	1.75
COC(=O)Cc1nc(NCc2ccccc2)c2c3c(sc2n1)CCCC3	-0.62	/
CCC(C)NC(=O)c1sc2nc(C)nc(N(C)c3ccc(C(C)C)cc3)c2c1C (configuration not stated)	-0.48	0.1
COc1cc(/C=N/n2cnc3scc(-c4cccs4)c3c2=O)ccc1O	/	1.15
Cc1cccc(N2CCN(CC(=O)NCc3cccs3)CC2)c1C	/	0.85
CCN(Cc1ccccc1)C(=O)Cn1cc2c(n1)-c1c(oc(C(=O)N3CCCC3)c1C)CC2	-0.095	0.1
COc1ccc(-c2cn3cccnc3n2)cc1NC(=O)C(C)C	0.16	-0.55
Cc1cc(C)c2oc(-c3cccc(NC(=O)c4cc(Br)ccc4Cl)c3C)nc2c1	2.9	/
COc1cccc(OCC(=O)Nc2cccc(C(=O)O)c2C)c1	0.505	-0.15
CCOC(=O)C1CCN(c2ccccc2CN2CCN(c3ncc(C(F)(F)F)cc3Cl)CC2)CC1	-1.09	-0.7
Cc1cc2c(cc1C)NC(c1ccc(N(C)C)cc1)C1=C(CC(C)(C)CC1=O)N2 (configuration not stated)	-2.33	-0.15
COC(=O)C(=Nc1ccc(NC(C)=O)cc1)C(F)(F)F	/	-0.55
N#CCCC1CCCCCCCCCCC1O (configuration not stated)	0.71	-1.25
COc1ccc2c(c1)-c1c(ssc1=Nc1ccc(S(N)(=O)=O)cc1)C(C)(C)N2	-0.02	1
Oc1ccc(C2Oc3ccccc3C3CC(c4ccccc4O)=NN32)cc1 (configuration not stated)	-0.21	-0.55
O=C(Nc1ccc(Br)cc1)C1(c2ccccc2)CCCC1	1.48	0.1
O=C(N/N=C/c1cc(F)cc(F)c1)c1ccc(C(F)(F)F)cc1	0.555	/
OC(CN1CCN(c2ccccc2)CC1)Cn1c2ccccc2c2ccccc21 (configuration not stated)	6.75	/
O=C(CSCc1cnn(-c2ccccc2)c1-n1cccc1)Nc1ccccc1Br	2.33	0.35
O=c1occ(CO)c(O)c1CN1CCCCC1	-1.02	-0.05
COc1cc(C)nc(NC(=O)NS(=O)(=O)c2c(OC)cc(C)nc2Cl)n1	0.19	/
Cc1cc(Cl)ccc1NC(=O)COC(=O)c1cccs1	-0.425	1.4
O=C1CCCC2=C1C(c1ccc(Cl)cc1)c1c(ccc3ccccc13)N2 (configuration not stated)	0.255	2.2
COC(=O)C1=C(C)Nc2nnnn2C1c1ccc([N+](=O)[O-])cc1 (configuration not stated)	-0.77	/
COc1ccc(CNS(=O)(=O)NCc2ccc(Cl)cc2)cc1OC	-0.22	/
O=C1C(=O)N(CCCN2CCOCC2)C(c2ccccc2F)/C1=C(\O)c1ccc2c(c1)OCCO2 (configuration not stated)	-1.07	2.15
CCOc1ccc(C2C(C#N)=C(SC)NC(=O)C2C(=O)OC)cc1 (configuration not stated)	0.065	-0.2
COc1cccc(C2C3=C(CC(C)(C)CC3=O)Nc3ccc4ccccc4c32)c1 (configuration not stated)	97.1	/
c1cnc2ccc(-c3ccc4ncccc4c3)cc2c1	4.24	-1
CCS(=O)(=O)c1ccc(C(=O)Nc2ccccc2OC)c(Cl)c1Cl	3.36	/
CCN=C1S/C(=C\c2cn(C(C)=O)nc2-c2ccccc2)C(=O)N1CC	1.02	-1
COc1cccc(OC)c1OC(=O)c1c(F)cccc1F	/	-0.5
CC(=O)OCC(=O)[C@@]12OC3(CCCC3)O[C@@H]1CC1C3CCC4=CC(=O)C=C[C@]4(C)[C@@]3(F)[C@@H](O)C[C@@]12C (some centres not stated)	-0.195	-0.15
CC(=O)c1ccc(S(=O)(=O)NC(c2ccccc2)c2ccccn2)cc1 (configuration not stated)	-0.625	/
COC(=O)C(CO)NC(=O)C(Cc1c[nH]c2ccccc12)NC(=O)OCc1ccccc1 (configuration not stated)	0.375	/
CC(C)[C@H](NC(N)=O)C(=O)NCc1ccccc1	/	-0.05
O=C(OCCOc1ccccc1)c1cc(=O)[nH]c2ccccc12	/	0.2
CC(C(N)=O)N1C(=O)c2ccccc2C1=O (configuration not stated)	0.305	1.6
Cc1oc(-c2ccc(Cl)cc2)cc1C(=O)N1CCOCC1	1.07	-0.15
COCc1cc(C)nc(OCC(=O)N/N=C/c2cccnc2)c1C#N	62.4	1.1
O=c1/c(=C/c2cccc(Br)c2)sc2nnc(-c3ccccc3)n12	0.1	/
Cc1cc(C)c2cc(C(=O)N3CCc4ccccc4C3)[nH]c2c1	-1.09	0
CN1CCN(c2cnn(-c3ccccc3)c(=O)c2Br)CC1	-0.85	-0.7
OC(CSCc1ccc(Cl)cc1)(c1ccccc1)c1ccccc1	-0.53	/
NNC(=O)CN1C(c2ccc(Cl)cc2)=Nc2ccc(Cl)cc2C1c1ccccc1 (configuration not stated)	0.09	0.65
COc1ccc(-n2c(O)c(C=NC3CN4CCC3CC4)c3ccccc3c2=O)cc1OC (configuration not stated)	/	0
COCC(NS(=O)(=O)c1ccc(OC)c(OC)c1)C(O)c1ccccc1 (configuration not stated)	-0.28	/
CCN(CC)c1ccc(C(=O)Nc2nc(-c3ccc(C)o3)cs2)cc1	/	-0.7
CC(C)CC(C(=O)O)N1Cc2ccccc2C1=O (configuration not stated)	0.49	-0.25
O=C1c2cccc([N+](=O)[O-])c2C(=O)N1C1C(=O)N(c2ccc(F)cc2)C1c1cccs1 (configuration not stated)	-0.365	/
CCC(Cl)C(=O)OC1CCC2(C)C(=CCC3C2CCC2(C)C(C(C)CCCC(C)C)CCC32)C1 (configuration not stated)	-0.65	/

Bioassay records deposited in PubChem by ICCB-Longwood Screening Facility, Harvard Medical School.
